CSC inhib: blocks cancer stem cells; cancer stem cell-like cells viability, luminescence; AID 2717; 300,000 tested, 1.1% active; inhibition, % at 7.5 µM;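 active = mean at 75% or more and at least half the replicates too; inconclusive = mean and replicates disagree; tested in HMLE shEcad cells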;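 note: 0% = median of negative and 100% = median of positive control wells; the first replicate is given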
MT1-MMP act inh: blocks activation of human MT1-MMP | HT1080 RFP-PRO-GFP cells, GFP/RFP ratio fluorescence, overnight; percent of plate control window, DMSO zero | AID 651647 | GFP/RFP ratio change, % at 20 µM | 360,000 tested, 0.061% active;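 active = GFP/RFP ratio change of at least 30% with cell ATP level not reduced by more than half and red fluorescence within 50% of control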; note: strong numbers were not always called active
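Material: RFP-PRO-GFP reporter HT1080 cells. Dosing: single-point 20 µM compound, 1% DMSO. Controls: DMSO and RFP-L50D-GFP cell wells. Timing: cells overnight before dosing, compound overnight, 37 °C, 5% CO2. Measure: GFP/RFP fluorescence ratio.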
PABP FP inh: blocks human PABP binding to poly(A) RNA; P11940; fluorescence polarization; inhibition, % at 35 µM; 290,000 tested, 1% active; AID 2014;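 active = 50% or more with normal probe brightness, or confirmed in later tests; inconclusive = above 50% with abnormal brightness, or retests that disagree; inactive = below 50% or failed in later tests; about a fifth of its hits are not listed in these tables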;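 note: calls also rest on retests at 20 µM and on dose response follow-up; controls were probe without protein and protein plus probe with vehicle; some compounds called inactive have numbers as strong as hits; many hits fall short of the cut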
eIF4H FP inh: inhibitors of RNA binding by human eIF4H. Q15056. eIF4H fluorescence polarization binding assay. inhibition, % at 35 µM. 290,000 tested, 0.94% active;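 active = 50% or more with normal probe brightness, or confirmed in later tests; inconclusive = above 50% with abnormal brightness, or retests that disagree; inactive = below 50% or failed in later tests; about a fifth of its hits are not listed in these tables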;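 note: calls also rest on retests at 20 µM and on dose response follow-up; 0% = protein and probe with vehicle and 100% = probe without protein; strong numbers were not always called active; many hits fall short of the cut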
Yeast UUG start: alters start codon recognition fidelity in yeast | S. cerevisiae UUG-firefly luciferase reporter, luminescence/redox ratio | 350,000 tested, 0.13% active | activity score, % at 18.7 µM | AID 602363;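 active = replicate mean at a twofold rise or more, about +100% in these data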;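 note: firefly luciferase made from a UUG start codon reports start codon fidelity; reporter light over untreated wells divided by growth signal over untreated wells; some hits fall short of that in this replicate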
Env fusion inh: blocks HIV Env-driven cell-cell fusion | HeLa-JRFL Env/CEM21 cell fusion, luciferase | inhibition, % at 12.3 µM | 360,000 tested, 1.1% active | AID 651610;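 active = mean replicate inhibition score of at least 50 and every replicate individually at or above 50; inconclusive = only one of the two criteria met; inactive = mean below 50 and not all replicates reaching 50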;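 note: 0% = plate neutral controls and 100% = maraviroc near 300 nM; one replicate is shown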
Rce1 inhib: blocks yeast Ras-converting enzyme | Q03530 | yeast membranes, quenched prenylated peptide cleavage fluorescence | calls only | 290,000 tested, 0.27% active | AID 2563;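 active = fall in fluorescence gain of 50% or more versus controls, with final raw signal at or below 3038400; inconclusive = same 50% fall but final raw signal above 3038400; inactive = fall in fluorescence gain under 50%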;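 note: plate controls were neutral control wells for no effect and wells lacking membranes for full effect; tested at 10 µM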
Target sequence (Q03530 whole entry, looked up): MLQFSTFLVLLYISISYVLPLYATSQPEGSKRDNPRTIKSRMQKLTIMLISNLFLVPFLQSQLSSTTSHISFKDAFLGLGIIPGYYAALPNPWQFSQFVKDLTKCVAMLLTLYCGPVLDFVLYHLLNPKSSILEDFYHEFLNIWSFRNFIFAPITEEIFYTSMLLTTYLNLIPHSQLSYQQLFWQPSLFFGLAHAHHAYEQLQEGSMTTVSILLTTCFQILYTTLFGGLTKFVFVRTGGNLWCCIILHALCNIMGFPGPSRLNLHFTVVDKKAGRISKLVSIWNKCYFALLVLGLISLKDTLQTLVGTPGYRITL
MT1-MMP act inh RFP: recorded beside MT1-MMP act inh, whose call it bears; RFP signal change, %; measured here: RFP expression control read;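 0 = vehicle wells; hits needed this value within 50% of zero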
An asterisk follows results filed as active; i = inactive; u = inconclusive; x = no result given; & = joins results of further samples.

SMILES | CSC inhib | MT1-MMP act inh | MT1-MMP act inh RFP | PABP FP inh | eIF4H FP inh | Yeast UUG start | Env fusion inh | Rce1 inhib
CCCc1nnc(SCC(=O)Nc2ccccc2Cl)n1CC1CCCO1 (configuration not stated) | 9.3 | 0.0 | 1.9 | 3.4 | -8.0 | -5.4 | -7.8 | i
CC(C)Cn1c2c(c(O)c(C(=O)Nc3ncccc3O)c1=O)CCCC2 | -11.0 | 0.7 | -1.2 | 19.0 | 11.7 | x | x | i
COc1ccc(-c2csc(NC(=O)c3cccc(S(=O)(=O)N4CCN(C)CC4)c3)n2)cc1 | 9.5 | 3.9 | -18.7 | 6.6 | 2.7 | -1.9 | 31.3 | i
C[C@@H]1CN([C@H](C)CO)C(=O)c2cc(Br)cnc2O[C@H]1CN(C)Cc1cccnc1 | x | 1.3 | 4.0 | x | x | -6.6&4.7 | -6.0 | x
COc1ccc(-n2ncc3c2CC(C)(C)CC3NC(=O)c2oc(C)cc2C)cc1 (configuration not stated) | -3.8 | -9.2 | -5.4 | 2.4 | -2.5 | -17.6 | 6.6 | i
O=C(CCCCC(=O)Sc1ccccc1)Sc1ccccc1 | x | -8.9 | -7.0 | x | x | -10.2 | 21.2 | x
Oc1c(Br)cc(Br)cc1C=Nc1ccc2[nH]ncc2c1 | -7.5 | -0.6 | 1.1 | 19.8 | 36.8 | x | 21.4 | i
CC(C)(C)C1c2[nH]c3ccccc3c2CCN1CCCn1cccn1 (configuration not stated) | 0.8 | -4.2 | 2.5 | 0.6 | -5.2 | -12.1 | 14.8 | i
COc1ccc(N2CCN(C(=O)c3c(-c4c(F)cccc4Cl)noc3C)CC2)cc1 | -3.0 | 2.3 | -1.0 | -7.7 | -15.4 | 7.7 | -7.2 | i
O=C(NCCO)c1cccc(-c2cnc3cccnn23)c1 | x | -1.4 | 4.2 | x | x | -6.2 | 8.5 | x
CCCOc1ccc(N2C(=O)CC(NCCNc3ccc([N+](=O)[O-])cn3)C2=O)cc1 (configuration not stated) | -5.8 | -2.0 | -3.5 | 2.8 | -10.2 | x | 0.6 | i
O=C1CCCC2=C1C(c1ccc(Cl)cc1)N1C(=O)CCSC1=N2 (configuration not stated) | 2.2 | -5.8 | -5.5 | -19.6 | -1.0 | -25.1 | 40.8 | i
S=C(Nc1ccccc1Cl)N1CCN(c2ccccn2)CC1 | -0.4 | 6.4 | -5.9 | 9.7 | -7.3 | -12.7 | -15.0 | i
COc1ccc(NCc2nnc(SCCN3CCCCC3)n2-c2ccc(C)cc2)cc1 | -11.8 | -4.6 | -0.3 | -1.1 | -10.9 | -12.5 | 8.3 | i
COc1cc(NC(=O)CCNC(=O)Cn2cnc3ccccc3c2=O)cc(OC)c1OC | 2.1 | 3.1 | 2.9 | 7.1 | 5.6 | -5.5 | -22.2 | x
C=CCOc1ccc(/C=N/NC(C)=O)cc1OCC | -3.3 | 5.3 | 6.9 | 5.2 | -5.8 | x | 0.5 | i
C=CCNc1ncnc2c1ncn2[C@H]1CN(Cc2ccc(F)cc2)C[C@@H](CO)O1 | x | 3.8 | 1.6 | x | x | -37.6 | 12.0 | x
COc1ccccc1NS(=O)(=O)c1cccc(C(=O)NCC(c2ccco2)N2CCCCC2)c1 (configuration not stated) | 17.9 | 4.3 | -1.2 | x | x | -2.9 | -1.3 | i
CCn1c(COC(=O)CNC(=O)c2ccccc2F)nc2cc(S(=O)(=O)N(C)C)ccc21 | -0.6 | 1.8 | -0.9 | x | x | -20.2 | 30.6 | i
CCOc1ccccc1C(=O)Nc1cccc(-c2ccc(N3CCOCC3)nn2)c1 | x | 5.3 | 4.2 | x | x | -18.5 | -43.9 | i
CC1CCCCC1NC(=S)NC(=O)c1ccccc1Cl (configuration not stated) | 0.1 | 3.3 | 2.9 | x | x | -1.2 | -3.1 | x
CCCNC(=O)c1ccc(N2CCC3(CC2)CC(c2cccc(Br)c2)=NO3)c(NC(=O)c2cccc(OC)c2)c1 | 25.9 | 3.5 | -1.2 | x | x | -10.3 | 23.6 | i
CCN(CC)c1ccc(/C=N/N2CCN(Cc3ccccc3)CC2)cc1 | -5.2 | 1.2 | -1.0 | -8.5 | 4.1 | x | 1.6 | i
O=C(COc1ccccc1)N1CCN(C(=O)c2cccs2)CC1 | -6.7 | -1.5 | 4.1 | 3.4 | 8.8 | -12.5 | x | i
CC1CCN(c2ccccc2NC(=O)c2ccc(N3CCOCC3)c([N+](=O)[O-])c2)CC1 | -11.8 | 2.6 | -2.9 | -8.7 | -5.4 | -2.1 | x | i
CC1=NOC(=O)/C1=C\c1ccc(-c2cccc(Cl)c2)o1 | 63.4 | -7.2 | -2.9 | 1.9 | 22.1 | -18.3 | x | i
COc1ccc(-c2nc(CN3CCC(C(=O)N4CCOCC4)CC3)c(C)o2)c(OC)c1 | -8.4 | 0.0 | 6.1 | -6.9 | 3.8 | -17.3 | x | i
Nn1c(=O)c2ccccc2n2c(SCc3ccc(C(F)(F)F)cc3)nnc12 | 9.9 | 2.3 | -0.2 | -7.4 | -8.2 | x | 1.0 | i
CCN1CCN(CC(=O)Nc2cccc(C)c2)C(=O)C1=O | -9.9 | 0.1 | 4.0 | x | x | -2.5 | -0.2 | i
COc1ccc(OC)c(S(=O)(=O)Nc2ccc(C)c(C)c2)c1 | -7.7 | 0.9 | 1.6 | -3.9 | 13.3 | 12.8 | 23.2 | i
CC(=O)Nc1ccc(N2C(=O)c3ccc(S(=O)(=O)c4ccc(C(=O)O)cc4)cc3C2=O)cc1 | -7.5 | 1.6 | 2.2 | 11.6 | -7.6 | -2.7 | 4.8 | i
CCCc1ccc(C(=O)CCC(=O)NNC(=O)c2ccncc2)cc1 | -4.3 | -2.4 | 1.9 | 1.1 | -9.7 | -17.5 | 30.7 | i
C(=N\c1ncnc2sccc12)/NOCc1ccccc1 | 4.1 | -9.9 | -22.3 | 2.0 | 4.6 | x | x | i
CN(C)c1ccc(/C=N\NC(=O)CC#N)cc1 | x | -4.9 | 3.8 | 7.6 | 0.1 | x | -14.2 | i
O=C(CN1C(=O)COc2ccccc21)NCCCN1CCN(c2ccccc2F)CC1 | -4.5 | 3.7 | 1.2 | x | x | -2.0 | 5.7 | i
CC(C)N(Cc1ccccc1)C(=O)COC(=O)c1cnccn1 | -19.0 | -2.1 | -0.2 | -3.9 | -0.2 | -16.8 | 4.9 | i
COc1ccc(S(=O)(=O)NCCSCc2ccco2)cc1Cl | 3.9 | -2.2 | 5.1 | 5.5 | 8.6 | 0.4 | x | i
Cc1cccc(OCc2nnc(SCC(=O)N3c4ccccc4CCc4ccccc43)o2)c1 | 22.1 | -9.0 | -16.8 | -2.2 | -3.4 | -14.9 | -6.1 | i
CC(C(N)=O)N1c2cccc3cccc(c23)S1(=O)=O (configuration not stated) | -10.1 | -7.5 | -2.2 | -19.7 | -0.8 | x | 11.1 | i
O=C(NCc1ccco1)c1cccc2c1C(=O)c1ccc(N3CCCC3)cc1S2(=O)=O | x | -66.8 | 2.1 | x | x | -32.5 | -2.2 | x
CCCN1CCc2c(sc(NC(=S)NC(=O)c3ccccc3)c2C#N)C1 | 3.0 | -127.6 | 3.0 | 19.6 | u | x | -4.2 | x
CC(=O)Nc1cnc(-c2ccccc2O)cn1 | x | 1.6 | 6.3 | x | x | -46.9 | -47.9 | x
CCN1CCN(Cc2ccc(NC(=O)c3ccc(C)c(NC(=O)c4ccc5n[nH]nc5c4)c3)cc2C(F)(F)F)CC1 | x | -7.6 | -4.6 | -1.0 | -1.3 | -20.7 | 18.3 | i
CC(=O)Nc1ccc(N2C(=O)c3cccc4c(O)ccc(c34)C2=O)cc1 | -23.2 | -95.4 | 10.3 | u | u | -13.5 | 10.4 | i
COc1ccccc1CNC(=O)CN1C(=O)c2ccc([N+](=O)[O-])cc2C1=O | -5.9 | -3.0 | 3.0 | -3.9 | -2.9 | -1.8 | -8.0 | i
CCOc1ccc(S(=O)(=O)n2cc(F)c(=O)[nH]c2=O)cc1 | -6.5 | 2.1 | 3.3 | -2.9 | -2.3 | x | -9.6 | i
Cc1ccc(SCC(=O)Nc2nnc(-c3ccco3)o2)cc1 | -4.0 | -5.5 | 2.5 | x | x | -33.9 | 1.8 | i
COc1ccccc1N1CCN(CC(=O)Nc2ccc(-n3cnnn3)cc2)CC1 | 1.9 | 0.6 | -4.8 | -10.5 | -6.9 | -8.4 | 16.5 | i
CCCNC(=O)c1onc(CSc2ccc(Cl)cc2)c1C(=O)NCC1CC1 | 10.9 | -3.4 | 0.1 | x | x | -10.6 | 10.8 | i
C=CCN(CC=C)S(=O)(=O)c1ccc(NC(=S)NC(=O)C2CC2)cc1 | 4.5 | 0.3 | -2.8 | -5.0 | -6.3 | -17.9 | 35.0 | i
Cc1n[nH]c(=S)c2nn(-c3ccccc3F)c(C)c12 | x | -2.7 | 1.3 | 13.3 | 1.9 | -22.6 | x | i
CSc1nnc2c(n1)OC(c1ccccn1)N(C(C)=O)c1ccccc1-2 (configuration not stated) | -6.4 | -1.4 | -0.9 | 16.2 | 3.0 | -32.6 | -15.2 | i
Cn1nc(C(C)(C)C)cc1C(=O)N1CCCCC1c1cc(C(=O)Nc2cccc3c2CCCC3)no1 (configuration not stated) | x | -7.6 | -21.1 | x | x | -5.2 | 11.0 | x
CCNS(=O)(=O)c1ccc(NC(=O)c2c(-c3ccccc3)noc2C)cc1 | -8.6 | 0.1 | 0.9 | -20.2 | -5.1 | x | 2.2 | i
Nc1nc(NCC2CCCO2)nc(Nc2cccc(Cl)c2)c1[N+](=O)[O-] (configuration not stated) | 3.3 | 5.3 | 1.4 | 4.1 | 1.0 | -13.0 | 0.7 | i
CCn1c(SCC(N)=O)nc2ccccc2c1=O | 5.2 | -1.7 | 3.2 | -3.2 | 2.4 | -21.9 | x | i
O=C(NNC(=S)Nc1cccc(C(F)(F)F)c1)c1ccc(Cl)cc1Cl | 44.7 | 5.5 | -22.1 | -4.2 | 16.6 | x | -3.0 | i
CCOCCCNC(=O)Cn1cc2c(n1)CCCCC2 | x | 2.1 | 3.9 | -4.4 | 9.6 | -9.1 | -16.8 | i
COc1cc(/C=N\NC(=O)c2ccccc2F)ccc1Oc1ccc([N+](=O)[O-])cn1 | 35.3 | -2.5 | -11.0 | 2.0 | -1.7 | x | -1.6 | i
CCn1c(CCNS(=O)(=O)c2ccccc2Br)nnc1SC | -9.8 | -1.9 | 0.2 | -2.4 | 3.8 | -15.7 | 0.4 | i

(cont.)
SMILES | CSC inhib | MT1-MMP act inh | MT1-MMP act inh RFP | PABP FP inh | eIF4H FP inh | Yeast UUG start | Env fusion inh | Rce1 inhib
Cc1cc(NC(=O)C(C)SCC(=O)OCc2ccc([N+](=O)[O-])cc2)no1 (configuration not stated) | -11.4 | 0.2 | 0.2 | x | x | x | 1.0 | i
Cc1ccc(S(=O)(=O)N(C)C)cc1NC(=O)COc1cccc(-n2cnnn2)c1 | x | 2.7 | -2.2 | x | x | -15.3 | -9.2 | x
CCOc1cc(C(=O)NC(C)c2ccncc2)cc(OCC)c1OCC (configuration not stated) | -3.1 | 0.7 | 4.3 | 14.3 | 2.1 | -13.9 | 25.1 | i
CCOc1c2ccc(C(=O)NC3CCCc4ccccc43)cc2nn1CC (configuration not stated) | 4.9 | 1.9 | -2.3 | 0.6 | 4.6 | -19.5 | 7.0 | i

Entries of single compounds as entered above. Screens in order: CSC inhib, MT1-MMP act inh, MT1-MMP act inh RFP, PABP FP inh, eIF4H FP inh, Yeast UUG start, Env fusion inh, Rce1 inhib
Cc1cc(NC(=O)C(C)SCC(=O)OCc2ccc([N+](=O)[O-])cc2)no1 (configuration not stated) is listed with -11.4, 0.2, 0.2, x, x, x, 1.0, i
Cc1ccc(S(=O)(=O)N(C)C)cc1NC(=O)COc1cccc(-n2cnnn2)c1 is listed with x, 2.7, -2.2, x, x, -15.3, -9.2, x

Only part of the results is shown; rates above refer to the full screens.
